# Env fusion inh: HIV envelope-mediated fusion inhibition. inhibition, % at 12.3 µM. HeLa-JRFL Env/CEM21 cell fusion, luciferase. 360,000 tested, 1.1% active;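 active = mean replicate inhibition score of at least 50 and every replicate individually at or above 50; inconclusive = only one of the two criteria met; inactive = mean below 50 and not all replicates reaching 50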;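 also: 0% = plate neutral controls and 100% = maraviroc near 300 nM; one replicate is shown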
# Active calls of the source: *; ? = inconclusive; [ ] = another dose, or the depositor's remark. Some of the compounds tested. The share of hits here may be higher or lower than overall.
SMILES,Env fusion inh
Cc1noc(C)c1NC(=O)Nc1cccc2c1O[C@@H](CN(C)C(=O)Nc1ccc(F)cc1)[C@@H](C)CN([C@@H](C)CO)C2=O,14[16.7 µM]
COc1ccc(NC(=O)N(C)C[C@@H]2Oc3c(NC(=O)c4cc(C)nn4C)cccc3C(=O)N([C@@H](C)CO)C[C@@H]2C)cc1,9[16.7 µM]
COc1cccc(-c2cn(CC[C@@H]3CC[C@@H](NS(=O)(=O)Cc4ccccc4)[C@@H](CO)O3)nn2)c1,9[16.7 µM]
C[C@H](CO)N1C[C@H](C)[C@H](CN(C)C(=O)C2CCCCC2)Oc2ncc(C#CC3CC3)cc2C1=O,10[16.7 µM]
CN1C(=O)c2cc(NC(=O)c3ccc(Cl)cc3)ccc2OC[C@H]2O[C@@H](CC(=O)O)CC[C@@H]21,-15[16.7 µM]
CN1C(=O)c2cc(NC(=O)C3CCOCC3)ccc2OC[C@@H]2O[C@@H](CC(=O)NCCc3ccncc3)CC[C@@H]21,18[16.7 µM]
COc1ccc(NC(=O)N(C)C[C@@H]2Oc3ccc(NS(=O)(=O)c4ccccc4)cc3CC(=O)N([C@@H](C)CO)C[C@H]2C)cc1,12[16.7 µM]
COC(=O)[C@@H]1[C@@H](CO)[C@@H]2Cn3c(ccc(-c4cccc(F)c4)c3=O)[C@@H]2N1Cc1ccncc1,14[16.7 µM]
COC(=O)[C@@H]1[C@@H](CO)[C@@H]2Cn3c(ccc(C4=CCCCC4)c3=O)[C@@H]2N1Cc1ccc2c(c1)OCO2,3[16.7 µM]
O=C(C[C@H]1C=C[C@@H](NS(=O)(=O)c2ccc(F)cc2)[C@@H](CO)O1)NC1CCCCC1,6[16.7 µM]
C[C@H](CO)N1C[C@H](C)[C@@H](CN(C)Cc2cccc(C(=O)O)c2)Oc2cc(C#CCC3CCCC3)ccc2S1(=O)=O,-9[16.7 µM]
COc1ccc(C[C@@H]2CCc3cnnn3COC[C@H](C(C)C)NC2=O)cc1,-8[16.7 µM]
COC(=O)c1ccc2nc(-c3ccccc3)c(Cc3ccccc3)n2c1,-7
C[C@@H]1CN([C@@H](C)CO)C(=O)Cc2cc(NC(=O)c3ccncc3)ccc2O[C@@H]1CN(C)Cc1ccc(Cl)c(Cl)c1,-22[16.7 µM]
CCCN(C)C[C@H]1Oc2cc(C3=CCCC3)ccc2S(=O)(=O)N([C@@H](C)CO)C[C@@H]1C,-10[16.7 µM]
C[C@H](CO)N1C[C@H](C)[C@H](CN(C)C)OCCCC[C@H](C)Oc2ccc(NS(=O)(=O)c3ccccc3)cc2C1=O,-5[16.7 µM]
C[C@H](CO)N1C[C@H](C)[C@@H](CN(C)C(=O)Cc2cccnc2)Oc2ncc(C#CC3(O)CCCC3)cc2C1=O,-8[16.7 µM]
C[C@@H]1CN([C@H](C)CO)C(=O)c2cc(C#C[C@@H](C)O)cnc2O[C@@H]1CN(C)CC1CCOCC1,-15[16.7 µM]
O=C(C[C@H]1CC[C@@H]2[C@H](COC[C@H](O)CN2CC2CCOCC2)O1)NCc1ccc(Cl)cc1,-20[16.7 µM]
Cc1oc2c(c(C)nn2-c2ccccc2)c(=O)c1Cl,-44
C[C@@H]1CN([C@H](C)CO)S(=O)(=O)c2ccc(C3=CCCC3)cc2O[C@@H]1CN(C)S(C)(=O)=O,9[16.7 µM]
CC=Cc1ccc2n(c1=O)C[C@@H]1[C@@H](CO)[C@H](C(=O)N3CCc4ccccc4C3)N(C(=O)C3CC3)[C@H]21 (mixture of isomers),-3[16.7 µM]
CCCNC(=O)Nc1ccc2c(c1)OC[C@H](C)N(C(=O)C1CCOCC1)C[C@@H](C)[C@@H](OC)CN(C)C2=O,-21[16.7 µM]
COc1ccc(NC(=O)Nc2ccc3c(c2)CC(=O)N([C@@H](C)CO)C[C@@H](C)[C@@H](CN(C)CC2CCCCC2)O3)cc1,-7[16.7 µM]
COC(=O)[C@]12C[C@H](CC(=O)NCCc3ccccc3OC)C(=O)N(Cc3ccc4c(c3)OCO4)C1=C[C@H](C(C)(C)C)O[C@@H]2C,-5

# Reprinted at random: 4 compounds from above.
SMILES,Env fusion inh
COc1ccc(C[C@@H]2CCc3cnnn3COC[C@H](C(C)C)NC2=O)cc1,-8[16.7 µM]
O=C(C[C@H]1C=C[C@@H](NS(=O)(=O)c2ccc(F)cc2)[C@@H](CO)O1)NC1CCCCC1,6[16.7 µM]
COC(=O)[C@]12C[C@H](CC(=O)NCCc3ccccc3OC)C(=O)N(Cc3ccc4c(c3)OCO4)C1=C[C@H](C(C)(C)C)O[C@@H]2C,-5
COc1ccc(NC(=O)N(C)C[C@@H]2Oc3ccc(NS(=O)(=O)c4ccccc4)cc3CC(=O)N([C@@H](C)CO)C[C@H]2C)cc1,12[16.7 µM]

# Following part.
SMILES,Env fusion inh
CCCN(C)C[C@@H]1OCCCC[C@@H](C)Oc2ccc(NS(=O)(=O)c3ccc(C)cc3)cc2C(=O)N([C@H](C)CO)C[C@H]1C,2[16.7 µM]
O=C(C[C@H]1C[C@H]2c3cc(NS(=O)(=O)c4ccc(F)cc4)ccc3O[C@H]2[C@H](CO)O1)NC1CCCCC1,13[16.7 µM]
C[C@@H](NC(=O)C[C@H]1C[C@H]2c3cc(NC(=O)c4ccc5c(c4)OCO5)ccc3O[C@H]2[C@@H](CO)O1)c1ccccc1,3[16.7 µM]
C[C@H](CO)N1C[C@H](C)[C@@H](CN(C)C(=O)Nc2ccc3c(c2)OCO3)OCc2ccccc2-c2c(n(C)c3ccccc23)C1=O,-2[16.7 µM]
CO[C@@H]1CN(C)C(=O)c2cc(NS(=O)(=O)CC(F)(F)F)ccc2OC[C@H](C)N(Cc2nccs2)C[C@@H]1C,1[16.7 µM]
O=c1cc(CN2CCCC2)c2ccccc2o1,16
C[C@H](O)[C@@H]1CN2CCc3c([nH]c4ccccc34)[C@@H]2C[C@@H]1N(C)CC1CCCCC1,16
CO[C@@H]1CN(C)C(=O)c2cc(NS(=O)(=O)CC(F)(F)F)ccc2OC[C@@H](C)N(Cc2nccs2)C[C@H]1C,3[16.7 µM]
O=C(c1ccccc1)C12COc3ccccc3C1ON=C2c1ccccc1 (configuration not stated),5
COc1ccc(CNC(=O)N(C)C[C@H]2OCc3ccccc3-c3c(n(C)c4ccccc34)C(=O)N([C@@H](C)CO)C[C@H]2C)cc1,21[16.7 µM]
CN1C(=O)c2cc(NC(=O)c3ccc(F)c(F)c3)ccc2OC[C@@H]2O[C@H](CC(=O)N[C@@H]3CCN(Cc4ccccc4)C3)CC[C@H]21,12[16.7 µM]
CC(=O)N1[C@@H]2c3ccc(-c4cccnc4)c(=O)n3C[C@H]1[C@H](CO)[C@H]2C(=O)N1CCc2ccccc2C1,6[16.7 µM]
O=S1(=O)CC(N2CCC(c3ccccc3)CC2)CN1Cc1cn(Cc2ccc(C(F)(F)F)cc2)nn1 (configuration not stated),49
COCC(=O)Nc1ccc2c(c1)[C@@H]1C[C@@H](CC(=O)NCc3ccccc3F)O[C@@H](CO)[C@@H]1O2,-8[16.7 µM]
CN1C(=O)c2cc(NC(=O)c3ccccc3Cl)ccc2OC[C@@H]2O[C@@H](CC(=O)NCC(F)(F)F)CC[C@@H]21,1[16.7 µM]
O=C(C[C@H]1CC[C@@H](NC(=O)CCN2CCCCC2)[C@H](CO)O1)Nc1nccs1,8[16.7 µM]
COC(=O)[C@H](Cc1ccccc1)N[C@H](c1ccc(OC)cc1)[C@@H](O)Cc1ccccc1,23
C[C@H](CO)N1C[C@H](C)[C@@H](CN(C)C(=O)NC2CCCCC2)OCCCC[C@H](C)Oc2ccc(NS(C)(=O)=O)cc2C1=O,-4[16.7 µM]
CN1C(=O)[C@@]2(O[C@H]3c4ccccc4C=CN3C3=C2C(=O)CCC3)c2ccccc21,-14
CNC[C@@H]1Oc2cc(C#Cc3ccncc3)ccc2S(=O)(=O)N([C@@H](C)CO)C[C@H]1C,-12[16.7 µM]
CCCC(=O)Nc1ccc2c(c1)C(=O)N(C)[C@@H]1CC[C@H](CC(=O)NCc3cccc(F)c3)O[C@@H]1CO2,0[16.7 µM]
N#Cc1ccc(OCC(=O)N[C@@H](Cc2ccccc2)c2nc3ccccc3[nH]2)cc1,3
Cc1noc(C)c1S(=O)(=O)N(C)C[C@@H]1OCc2ccccc2-c2c(n(C)c3ccccc23)C(=O)N([C@@H](C)CO)C[C@H]1C,-6[16.7 µM]
CO[C@@H]1CN(C)C(=O)c2ccc(NC(=O)c3ccc4c(c3)OCO4)cc2OC[C@H](C)N(CCC(F)(F)F)C[C@@H]1C,14[16.7 µM]
CC(C)CNc1ccc2c(c1)OC[C@H](C)NS2(=O)=O,-11

# Another view of part of the listing above:
molecule	Env fusion inh
C[C@H](CO)N1C[C@H](C)[C@@H](CN(C)C(=O)Nc2ccc3c(c2)OCO3)OCc2ccccc2-c2c(n(C)c3ccccc23)C1=O	-2[16.7 µM]
CO[C@@H]1CN(C)C(=O)c2cc(NS(=O)(=O)CC(F)(F)F)ccc2OC[C@H](C)N(Cc2nccs2)C[C@@H]1C	1[16.7 µM]

# The results go on:
SMILES,Env fusion inh
C[C@@H]1CCCCO[C@@H](CN(C)CC2CC2)[C@H](C)CN([C@@H](C)CO)C(=O)c2cc(NS(=O)(=O)c3ccc(F)cc3)ccc2O1,-4[16.7 µM]
C=CCN=C1NC(CCc2ccccc2)C(C(=O)OC)=C(C)N1Cc1ccccc1C(F)(F)F (configuration not stated),44
C#CCN1CC(COc2ccccc2)Oc2cccc(Oc3ccc(C(C)C)cc3)c2S1(=O)=O (configuration not stated),?
C[C@H]1CN([C@@H](C)CO)C(=O)CCCn2cc(nn2)CO[C@H]1CN(C)C(=O)Nc1cccc2ccccc12,10[16.7 µM]
COC(=O)[C@@H]1[C@@H](CO)[C@@H]2Cn3c(ccc(/C=C/c4ccccc4)c3=O)[C@@H]2N1C(=O)C1CCCC1,1[16.7 µM]
Cc1cc2c(nc1C)CCCN2Cc1ccccn1,14
Cc1cccc(-c2cccc3[nH]c4c(c23)CCN2C(=O)[C@H]3[C@H](C)ON(C)[C@H]3C[C@@H]42)c1,-66
C[C@@H]1CN([C@H](C)CO)C(=O)c2cc(NC(=O)CCCN(C)C)ccc2O[C@@H](C)CCCCO[C@@H]1CN(C)Cc1ccccc1,10[16.7 µM]
Cc1noc(C)c1S(=O)(=O)Nc1ccc2c(c1)C(=O)N([C@@H](C)CO)C[C@@H](C)[C@@H](CN(C)Cc1ccc(-c3ccccc3)cc1)O2,-10[16.7 µM]
COc1ccc(C(C)=O)cc1CSC(=S)N1CCSCC1,?
C[C@@H]1CN([C@H](C)CO)S(=O)(=O)c2ccc(C#CC3CCCC3)cc2O[C@@H]1CN(C)C(=O)c1cccc(F)c1,31[16.7 µM]
CCNC(=O)N1CCN(c2ccc(N3CCN(Cc4ccccc4)[C@H](C)C3)c(C)c2)[C@@H](C)C1,7
COC(=O)c1ccc(CN2C(=O)[C@]3(OCCC=C[C@H]3C)c3c(Br)cccc32)cc1,16

# Of the compounds above, 2 have a COOH group:
SMILES,Env fusion inh
CN1C(=O)c2cc(NC(=O)c3ccc(Cl)cc3)ccc2OC[C@H]2O[C@@H](CC(=O)O)CC[C@@H]21,-15[16.7 µM]
C[C@H](CO)N1C[C@H](C)[C@@H](CN(C)Cc2cccc(C(=O)O)c2)Oc2cc(C#CCC3CCCC3)ccc2S1(=O)=O,-9[16.7 µM]

# Bioassay records deposited in PubChem by Broad Institute.
